# PMP22 txn prim: modulators of PMP22 gene transcription in S16 Schwann cells; S16 Pmp22-F2sN Schwann cells (luciferase reporters placed in the Pmp22 gene), FLuc/NLuc coincidence luminescence, 24 h; Potency, µM (highest dose often 57.5 µM), for the others: at the highest dose activity change, negative = inhibition, hits mostly inhibitors; 2% of 43,000 active; active = clear falling dose curves in both reporters; inconclusive = both reporters move, but less clearly or upward; inactive = either reporter flat; the % is the NLuc reporter signal; further: on the % scale 0 is the no-effect control and ±100 the full control effect; some results filed as inactive show a strong effect at the top dose
#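 qHTS, 1536-well. Cells seeded, compounds added by pin tool, 24 h 37C. Nano-Glo reagent 1 (lysis/FLuc), 10 min RT, read; Stop&Glo, 10 min RT, read NLuc.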
# HTT prom inh: HTT promoter inhibition | 0.93% of 48,000 active | Potency, µM (series often up to 57.5 µM), for the others: at the highest dose activity change, negative = inhibition, hits mostly inhibitors | HEK293 HTT promoter firefly luciferase reporter (activity 0% = vehicle and -100% = no light), 24 h; active means well fitted inhibition curve with a large enough effect; inconclusive means small, poorly fitted or top-dose-only effect; inactive means no such curve, though single readings can be large or run the other way; further: nearly all actives have a fitted effect of over 50% in size
#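 Quantitative HTS used concentration series of up to 57.5 uM final on HEK293 luciferase reporter cells, 24 h at 37 degrees C. Readout was Dual-Glo firefly luminescence.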
# * hit, by the source's call; ? = inconclusive; . = no result given; [ ] = another dose, or the depositor's remark. Potency means the concentration at half of the fitted maximal effect.
SMILES,PMP22 txn prim,HTT prom inh
CC(=O)c1ccc(NC(=O)C2=CC(c3ccc(C)cc3)=NS(=O)(=O)N2C)cc1,?,?
CCc1cc(=O)[nH]c(SCc2nc(-c3ccccc3)no2)n1,-14.9%,-32.3%
CCCCN1C(=O)C(O)(CC(=O)c2ccc(CC)cc2)c2cc(Br)ccc21 (stereo not given),?,?
Cc1ccc(NC(=O)c2ccc(CN3CC(=O)N4CCCCC4C3=O)cc2)cc1C (stereo not given),?,-20.3%
COc1cc(C(=O)NCCSc2c(-c3ccccc3)[nH]c3ccccc23)cc(OC)c1OC,?,?
O=C(Cc1ccc(Cl)cc1)NC1CC(=O)N(c2ccc3c(c2)OCCO3)C1 (stereo not given),1.9%,2.6%
C[C@H](NC(=O)C(=O)Nc1ccccc1C(C)(C)C)C(=O)N[C@@H](CC(=O)O)C(=O)COc1c(F)c(F)cc(F)c1F,.,?
Cn1cc(C=C2C(=O)Nc3cccnc32)c2ccccc21,.,35.1%[activator]
CCOc1ccc(NC(=O)c2oc3ccccc3c2NC(=O)Cc2ccc(OC)c(OC)c2)cc1,?,5.7%
COc1ccccc1NC(=O)CN1CCN(CC(=O)Nc2ccc(F)c(F)c2)CC1,?,?
COc1ccc(NC(=O)Cn2cc(S(=O)(=O)c3ccccc3)c(=O)c3cc(C)ccc32)cc1Cl,2.9%,-5.0%
CCc1cccc(NC(=O)CN2Cc3ccccc3C2=O)c1,7.4%,-14.6%
CC(=O)CSc1nnc2cc(C)c3cc(C)cc(C)c3n12,?,-1.9%
COc1ccc(N2CCN(C(=O)c3cc4cc5ccc(Cl)cc5nc4o3)CC2)cc1,-2.2%,5.9%
Cc1nc2ccc(S(=O)(=O)N(CC(=O)Nc3ccc(F)cc3)Cc3ccccc3)cc2s1,-0.7%,?
CCOc1ccccc1CNC(=O)C(CC)n1nc(C)c2c(C)n(-c3ccccc3)nc2c1=O (stereo not given),?,?
COc1ccc(Nc2cc(C(=O)NCCCN(C)Cc3ccccc3)c3ccccc3n2)cc1,?,?
CCN1CCN(C(=O)c2ccc3c(c2)N(Cc2ccc(Cl)cc2)C(=O)c2ccccc2S3(=O)=O)CC1,?,-14.8%
COc1cc(C2c3c(oc4ccccc4c3=O)C(=O)N2c2nncs2)cc(OC)c1OC (stereo not given),-6.3%,-6.2%
Cc1cccc(Cn2cc3c(=O)n(CC(=O)Nc4cccc(C)c4C)nc-3c3cc(F)ccc32)c1,4.4%,-7.6%
COc1ccccc1NC(=O)CC1Sc2ccc(C(F)(F)F)cc2NC1=O (stereo not given),?,-3.6%
Cc1ccccc1NC(=O)c1c(NC(=O)C(F)(F)F)sc2c1CCCCC2,11.5µM*,2µM*
O=C1CC(c2nnc(Cc3cccc(Cl)c3)o2)CN1c1ccccc1 (stereo not given),12.0%,-26.4%
COc1cccc(C2C(C(=O)Nc3ccc(Cl)cc3)=C(C)Nc3nc4ccccc4n32)c1 (stereo not given),-19.8%,-14.5%
CCc1cc(C(=O)NC(C)c2ccccc2)no1 (stereo not given),2.6%,-8.5%
CCN(CC)c1ccc(NC(=O)CSc2nc(-c3cccs3)cc(C(F)(F)F)n2)cc1,?,5.0%
Cc1cc2nc(-c3cccc(NC(=O)COc4ccc(C(C)C)cc4)c3)oc2cc1C,-0.2%,74.3%[activator]
COc1cccc(-c2cn3ncsc3n2)c1,?,57.7%[activator]
COC(=O)CSc1nnc2n(-c3ccccc3)c(=O)c3c4c(sc3n12)COC(C(C)C)C4 (stereo not given),-3.6%,-10.7%
O=C(NCc1cccnc1)C(=O)NCC(c1cccnc1)N1CCN(c2ccccc2F)CC1 (stereo not given),-7.2%,?

# Filtered by structure, those above with fluorine (eight)
SMILES,PMP22 txn prim,HTT prom inh
C[C@H](NC(=O)C(=O)Nc1ccccc1C(C)(C)C)C(=O)N[C@@H](CC(=O)O)C(=O)COc1c(F)c(F)cc(F)c1F,.,?
COc1ccccc1NC(=O)CN1CCN(CC(=O)Nc2ccc(F)c(F)c2)CC1,?,?
Cc1nc2ccc(S(=O)(=O)N(CC(=O)Nc3ccc(F)cc3)Cc3ccccc3)cc2s1,-0.7%,?
Cc1cccc(Cn2cc3c(=O)n(CC(=O)Nc4cccc(C)c4C)nc-3c3cc(F)ccc32)c1,4.4%,-7.6%
COc1ccccc1NC(=O)CC1Sc2ccc(C(F)(F)F)cc2NC1=O (stereo not given),?,-3.6%
Cc1ccccc1NC(=O)c1c(NC(=O)C(F)(F)F)sc2c1CCCCC2,11.5µM*,2µM*
CCN(CC)c1ccc(NC(=O)CSc2nc(-c3cccs3)cc(C(F)(F)F)n2)cc1,?,5.0%
O=C(NCc1cccnc1)C(=O)NCC(c1cccnc1)N1CCN(c2ccccc2F)CC1 (stereo not given),-7.2%,?

# (list continues)
SMILES,PMP22 txn prim,HTT prom inh
O=C(Nc1ccc(-c2nc3cc(Cl)ccc3o2)cc1)c1cc2ccccc2o1,?,-12.3%
CCc1ccc2oc(C(=O)N(Cc3cccc(Cl)c3)Cc3ccco3)c(C)c2c1,5.6%,-26.3%
COc1cccc(CNC(=O)c2cc3ccc4cccnc4c3[nH]2)c1,-5.5%,11.5%
Cc1ccc(NC(=O)CSc2nc3nccnc3c(=O)n2CCc2c[nH]c3ccccc23)cc1,?,-11.7%
O=C(Nc1cccc(C(=O)OCc2cc(=O)n3c4c(sc3n2)CCCC4)c1)c1cccc(Cl)c1,?,10.5%
CCc1ccc(C2c3c(-c4cc(C)ccc4O)n[nH]c3C(=O)N2Cc2cccnc2)cc1 (stereo not given),-16.1%,?
Cc1ccc(-n2nnc3c(sc4nc(C)c(C)cc43)c2=O)cc1Cl,-0.8%,2.5%
COc1ccc(-c2nc3sc(CCNS(=O)(=O)c4ccccc4)c(C)n3n2)cc1,8.2%,?
O=c1c(=O)n(-c2cccc(Cl)c2)ccn1Cc1cccc(F)c1,-6.7%,-22.6%
CCOC(=O)C1CCCN(C(=O)c2cccc(NC(=O)c3nsc4ccccc34)c2)C1 (stereo not given),-11.2%,52.3%[activator]
CCSc1ncc(Cl)c(C(=O)Nc2cccc(Cl)c2)n1,?,-33.4%
CCOc1ccc(NC(=O)CSc2nnc3scc(-c4ccccc4)n23)cc1,63.9%,-31.7%
CCOC(=O)c1cccc(NC(=O)NC2COc3ccccc3C2)c1 (stereo not given),?,-17.7%
Clc1ccc(-c2nc3ncccn3c2Nc2ccc3c(c2)OCCO3)cc1,-12.9%,5.8%
CCOC(=O)c1cc2c(=O)n3ccccc3nc2n(CCCOC)c1=NC(=O)c1c(-c2c(F)cccc2Cl)noc1C,-8.3%,-21.5%
O=c1cc(-c2cccc3c2Sc2ccccc2S3)oc(N2CCOCC2)c1,.,?
CCn1c(=O)c(=O)n(CC)c2cc(N3CCCCC3)c(NC(=O)c3ccc(Cl)cc3)cc21,-16.4%,2.9%
Cc1cc(Cl)ccc1OCc1nc(-c2ccc(-n3cccc3)cc2)no1,-3.8%,-14.8%[11.5 µM]
Cc1cc(C)cc(OC(=O)c2cc(-c3ccc(Cl)cc3)on2)c1,-14.3%,4.8%
O=C(Nc1c(C(=O)Nc2ccc(F)cc2)oc2ccccc12)c1ccccc1F,6.7%,-2.2%
Cc1ccc(NC(=O)C(=O)NCCc2csc3nc(-c4ccccc4C)nn23)cc1Cl,-12.9%,-9.5%
CCOc1ccc(-c2nc(CNC(=O)NC3CCCCC3)c(C)o2)cc1,-4.3%,-12.5%
N#Cc1ccc(C(=O)NCc2ccc3c(c2)CCN3C(=O)c2ccc(F)cc2)cc1,-28.5%,-3.6%
CCCc1nn2cc(-c3ccc(C)c(C)c3)nc2s1,-0.1%,?
O=C1CC(c2cccc(O)c2)c2cc3c(cc2N1)OCO3 (stereo not given),-27.6%,-13.8%
COc1cc(NC(=O)CSc2nc3nc(C)c(Cc4ccc(C)cc4)c(C)n3n2)cc(OC)c1OC,-28.9%,?
Cc1ccc(-n2c(=O)c3c(c4cc(C)ccc4n3C)n(CC(=O)Nc3ccc(F)cc3)c2=O)cc1,?,-20.1%
CC1=C(C(=O)Nc2ccccc2)C(c2cccnc2)n2nc(SCc3ccccc3Cl)nc2N1 (stereo not given),-11.8%,-4.3%
Cc1cccc(-c2nnn3c2nc(NCCC(C)C)c2ccccc23)c1,13.4µM*,-10.2%
CCOc1ccccc1CNC(=O)CCn1cccn1,15.0%,7.2%
COc1cc(OC)c(NC(=O)c2cc(S(=O)(=O)N3CCCC3)cn2C)cc1Cl,-10.5%,-8.0%
CCc1ccc(S(=O)(=O)N(C(C)=O)c2ccc3oc4c(c3c2)CCCC4)cc1,?,?
Cn1c(=O)n(C)c2cc(NS(=O)(=O)c3ccc(F)cc3)ccc21,?,-1.6%
Cc1ccc(C(=O)NCC(=O)OCc2cc(=O)n3ccsc3n2)cc1,-21.9%,-0.5%
COc1cc2ccccc2cc1C(=O)Nc1cccc(-c2nc3cc(C)c(C)cc3o2)c1,-39.4%,7.08µM*
COc1cccc(CNc2nccn(-c3cc(C)cc(C)c3)c2=O)c1,?,?
COc1ccc(-c2nc3c4ccccc4n(CC(=O)N4CCN(c5ccccc5F)CC4)c(=O)n3n2)cc1,0.3%,11.9%
CCOC(=O)c1c(C)oc2nc(C)nc(N3CCN(c4ccc(C(C)=O)cc4)CC3)c12,-4.3%,1.4%
O=C(CCCn1c(=O)[nH]c2ccsc2c1=O)N1CCN(c2cccc(C(F)(F)F)c2)CC1,?,?
CCN1CCN(CCCNC(=O)c2ccc3c(c2)sc2nc(-c4ccc(C)cc4)cn23)CC1,9.46µM*,-14.3%
Cc1ccc(C)c(NC(=O)C(=O)NCCc2csc(-c3ccc(C(F)(F)F)cc3)n2)c1,-25.5%,-1.2%
Cc1ccn2c(=O)cc(COc3ccc(NC(=O)c4ccccc4F)cc3)nc2c1,3.5%,1.6%
COc1ccc(S(=O)(=O)N(CC(=O)N2CCc3ccccc3C2)c2ccc(C)cc2)cc1,-26.9%,-10.5%
COc1ccc(NC(=O)c2ccco2)cc1NC(=O)c1ccc(OC(C)C)cc1,?,-18.5%
CCOc1cc(CNc2ccc(O)cc2)cc(Br)c1OCc1ccccc1,8.54µM*,?
Cc1cn2c(=O)cc(COC(=O)c3ccc(NC(=O)c4ccc(C(C)(C)C)cc4)cc3)nc2s1,3.5%,-24.7%
C[C@@]12C[C@@]3(O)O[C@@H](O1)[C@]1(COC(=O)c4ccccc4)[C@@H]3C[C@@]12O[C@@H]1O[C@H](CO)[C@@H](O)[C@H](O)[C@@H]1O,.,0.8%
Cc1cccc(-c2nc(SCc3ccc(Br)cc3)n3[nH]c(=O)cc3n2)c1,-23.3%,-1.5%
C=CCOc1ccc(C2c3c(oc4ccc(C)cc4c3=O)C(=O)N2CCCN2CCOCC2)cc1 (stereo not given),-84.7%,2.5%
Cc1nn2c(=O)cc(CN(C)c3ccccc3)nc2s1,-11.3%,-10.0%
O=C(Cn1c(=O)c(C(F)(F)F)nc2ccccc21)Nc1cccc(Br)c1,-13.6%,8.1%
CC(=O)Nc1ccc(-c2cc(C(=O)O)c3c(-c4ccccc4)[nH]nc3n2)cc1,53.6%,-4.8%
CCOc1ccc(-n2ccn3c(CC(C)CC(=O)O)nnc3c2=O)cc1 (stereo not given),-6.6%,-9.8%
Cc1ccc(N2CC(NC(=O)c3ccc(S(=O)(=O)N4CCOCC4)cc3)CC2=O)cc1C (stereo not given),-24.6%,?
CCC(=O)N1c2ccc(S(=O)(=O)NCc3ccc(F)cc3)cc2CC1C (stereo not given),?,?
Cc1ccccc1OCc1nc2ccccc2n1Cc1ccccc1Cl,6.1%,-24.1%
Cn1cc(CNCC2CCN(c3ncc(C(=O)NO)cn3)CC2)c2ccccc21,.,242.5%[activator]
Oc1ccccc1-c1nc2ccc(Cl)cn2c1Nc1ccc2c(c1)OCCO2,-42.1%,-6.4%
CCc1nc2ccc(C(=O)NCc3cc(OC)ccc3OC)cc2nc1CC,-13.8%,-5.4%
O=C(Nc1ccc2oc(-c3ccccc3)nc2c1)c1ccc2ccccc2c1,?,-15.0%[11.5 µM]

# More compounds.
SMILES,PMP22 txn prim,HTT prom inh
CCCCOC(=O)c1ccc(NC(=O)c2sc3nc(C)cc(C)c3c2N)cc1,2.2%,?
COc1ccc(N2C(=O)CS(=O)(=O)C23C(=O)N(Cc2c(F)cccc2Cl)c2ccccc23)cc1 (stereo not given),-25.5%,-27.0%
CC(C)C(=O)N(Cc1ccccc1)S(=O)(=O)c1ccc2c(c1)oc(=O)n2C,-18.7%,-10.2%
O=C(Cn1ccn(-c2cccc(Cl)c2)c(=O)c1=O)NCCc1ccccc1,3.7%,-14.1%
CCCCOc1ccc(C(=O)NCCc2csc(-c3cccc(F)c3)n2)cc1,-10.9%,?
CCc1cnc2c(c1SCC(=O)NCc1ccccc1)c(=O)n(C)c(=O)n2C,?,-10.7%
Cc1ccc(N2C(=O)c3n[nH]c(C)c3C2c2ccccc2Cl)cc1 (stereo not given),5.2%,-18.7%
Cc1c(Cl)cccc1NC(=O)CSc1ncc(S(=O)(=O)c2ccc(C(C)C)cc2)c(=O)[nH]1,-8.2%,-9.7%
COc1ccc(NC(=O)c2nnn(CC(=O)Nc3cc(C)cc(C)c3)c2N)c(OC)c1,8.0%,-2.8%
Cc1ccc(N2CCN(C(=O)c3cn(C)c4ccc(S(=O)(=O)N5CCC(C)CC5)cc4c3=O)CC2C)cc1 (stereo not given),-24.6%,71.3%[activator][11.5 µM]
COc1ccc(NC(=O)CSc2ncc3c(n2)-c2ccccc2N(Cc2ccc(C)cc2)S3(=O)=O)cc1Cl,-24.9%,?
CC(=O)N1c2nc(C(C)C)nn2C2(CCCCC2)[C@@H]2CCCC[C@@H]21,-1.4%,-9.1%

# Source: PubChem BioAssay
